# Screening results from PubChem.
# Rango dissoc inh: qHTS Assay for Inhibitors of RanGTP induced Rango (Ran-regulated importin-beta cargo) - Importin beta complex dissociation | Biochemical FRET Rango-importin beta, RanGTP-induced dissociation | hit rate 0.071% among 340,000 | Snurportin-1 (Homo sapiens) + GTP-binding nuclear protein Ran (Homo sapiens) + Importin … | Potency, µM (series often up to 46.1 µM), without a hit: top-dose activity change, negative = inhibition; active means falling FRET ratio curve, often poorly fitted, with flat reads before Ran was added; inconclusive means other falling curves, or compound fluorescence or quenching; inactive means flat or rising ratio curve;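 note: potency is the fitted concentration of half-maximal effect; % of control where 0% means no effect; nearly all actives have a fitted effect of over 45% in size; -100% = wells without RanGTP and RCC1; the record marks most hits as doubtful in a second field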
#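 Rango (0.1 uM)–importin beta (0.25 uM) complex; RanGTP-RCC1 trigger; 45 min RT; CFP/YFP FRET read.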
# miR-21 reporter: qHTS Assay for Modulators of miRNAs and/orActivators of miR-21 | HeLa miR-21 FLuc reporter, luciferase, 48 h | Potency, µM (series often up to 38.3 µM), without a hit: top-dose reporter change, positive = more light | 340,000 tested, under 10 active; active = well fitted rising curve with a large enough effect; inconclusive = small, poorly fitted or top-dose-only effect; inactive = no such curve, though single readings can be large or run the other way;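 note: % of control where 0% means no effect; miR-21 action dims this reporter so a rising signal means less miR-21 action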
#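 Luminescence from a firefly luciferase reporter carrying a miR-21 binding site downstream, stably expressed under a CMV promoter in HeLa cells that make miR-21 endogenously, reports miRNA modulation after 48 h compound exposure up to approximately 40uM final.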
# GLA inh pH 4.5: qHTS Assay for Inhibitors of Human alpha-Galactosidase at pH 4.5; Alpha-galactosidase A (Homo sapiens), P06280; purified enzyme, 4-MU-alpha-Gal fluorescence, pH 4.5; activity change, negative = inhibition, % at 105 µM; 230,000 tested, under 10 active; AID 1467, 2008; inconclusive = small, poorly fitted or top-dose-only inhibition, or a rising curve; inactive = flat fitted curve, though single readings scatter; no compound was filed as active;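 note: 0% = full activity with enzyme and -100% = basal without enzyme; dose as in the result columns while the protocol names 77 µM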
# Target sequence (P06280 whole entry, looked up): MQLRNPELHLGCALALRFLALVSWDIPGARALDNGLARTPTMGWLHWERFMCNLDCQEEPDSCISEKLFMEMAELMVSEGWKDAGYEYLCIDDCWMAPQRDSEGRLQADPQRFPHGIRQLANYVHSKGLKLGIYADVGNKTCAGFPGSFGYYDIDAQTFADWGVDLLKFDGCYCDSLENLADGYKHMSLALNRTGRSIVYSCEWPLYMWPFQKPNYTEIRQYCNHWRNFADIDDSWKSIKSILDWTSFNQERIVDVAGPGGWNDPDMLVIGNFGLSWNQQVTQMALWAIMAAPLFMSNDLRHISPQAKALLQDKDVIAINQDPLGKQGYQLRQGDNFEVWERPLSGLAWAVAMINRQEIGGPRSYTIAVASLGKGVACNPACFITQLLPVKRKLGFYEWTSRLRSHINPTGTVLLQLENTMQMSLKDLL
# Rango complex inh: qHTS Assay for Inhibitors of Rango (Ran-regulated importin-beta cargo) - Importin beta complex formation. Importin subunit beta-1 (Homo sapiens), Q14974. Potency, µM (series often up to 92.2 µM), for the others: at the highest dose inhibition of complex formation. hit rate 0.031% among 340,000. Rango CFP/YFP FRET sensor + importin beta, 45 min. AID 540263, 2011; active = rising FRET ratio curve, often small or poorly fitted; inconclusive = mostly compound fluorescence or quenching in the first reads; inactive = flat curves in all reads;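 note: potency is the fitted concentration of half-maximal effect; 0% = DMSO wells and 100% = buffer wells lacking importin beta; nearly all actives have a fitted effect of over 15% in size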
#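 FRET biosensor Rango (snurportin 1 IBB between N-terminal EYFP and C-terminal Cerulean), 50 nM in PBS/1 mM DTT/0.02% Tween-20/0.1% BSA, preincubated 5 min RT with compound; 0.125 microM importin beta added, 45 min RT, CFP/YFP FRET ratio read.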
# * hit, by the source's call; ? = inconclusive; nt = no result given. The list is partial; the hit share may differ from the screen's.
SMILES,Rango dissoc inh,miR-21 reporter,GLA inh pH 4.5,Rango complex inh
COc1cccc(NC(=O)CN(C)C(=O)CN2C(=O)c3ccc([N+](=O)[O-])cc3C2=O)c1,19%,nt,nt,5.3%
CCc1cccc(CC)c1-n1c(SCC(=O)N2CCc3ccccc32)nc(O)cc1=O,3%,nt,nt,-0.3%
CC(=O)Nc1cccc(Nc2nc(-c3ccccc3F)nc3ccccc23)c1,10%,24%,-7,2.9%
CC(=O)c1ccc(OCC(O)CN(C)Cc2cccs2)cc1 (stereo not given),1%,-3%,2,1.2%
CCCC(=O)Nc1ccc(C)c(O)c1,4%,-6%,7,0.0%
Cc1ccc(NC(NC(=O)c2cccs2)C(Cl)(Cl)Cl)cc1C (stereo not given),6%,14%,-4,3.1%
Cc1ccc(N(C)S(=O)(=O)c2cccc(C(=O)NCCCN3CCCC3=O)c2)cc1,2%,nt,nt,-0.4%
CCN(CC)C(=O)CSCc1cnn(-c2ccccc2)c1-n1cccc1,2%,17%,-6,-1.7%
O=C(c1ccco1)N(Cc1cccc(F)c1)C1CCS(=O)(=O)C1 (stereo not given),12%,-3%,nt,-0.4%
Cn1cccc1C(=O)OCC(=O)NC(=O)NC1CCCCC1,-14%,-43%,0,-0.8%
Cc1cc(=O)n2[nH]c(C)c(-c3ccccc3)c2n1,0%,2%,4,0.4%
Cc1ccc(C)c(Nc2nc3ccc(C)cc3n3cnnc23)c1,13%,-3%,nt,1.9%
N#CCC(=O)Nc1ccc(C(=O)OCC(=O)c2ccc3c(c2)OCCO3)cc1,-12%,-35%,7,-0.7%
O=C(NCc1ccco1)C1CCN(c2ccc(S(=O)(=O)N3CCOCC3)cc2[N+](=O)[O-])CC1,4%,0%,-4,0.5%
O=C(Nc1ccc(Cl)cc1)c1ccco1,-7%,-50%,nt,-0.7%
Cc1ccc(/C=c2\sc3nc(-c4cccs4)nn3c2=O)o1,17%,-4%,-19,3.5%
O=c1cc(Cl)[nH]c(=O)n1CCNc1ncc(C(F)(F)F)cc1Cl,?,-43%,-1,?
O=C(c1cnn2c(C(F)(F)F)cc(-c3ccc(Br)cc3)nc12)N1CCOCC1,-9%,0%,2,-1.3%
CCOC(=O)c1c(NC(=O)CN2CCC(C)CC2)sc(C)c1C,-12%,1%,-22,7.2%
O=C(CSc1nnnn1-c1ccc(Cl)c(C(=O)O)c1)NC(c1ccccc1)c1ccccc1,20%,-1%,-2,3.5%
CC(C)c1ccc(NC(=O)CSc2n[nH]c(=O)n2C2CC2)cc1,?,-11%,nt,-3.6%
Cc1ccc(S(=O)(=O)NCC(=O)OCC(=O)N2C(C)CCCC2C)cc1 (stereo not given),2%,nt,nt,5.6%
COCCCNC(=O)Cn1cc(C(=O)C2CC2)c2ccccc21,?,-8%,4,4.1%
CC1(C)CC(=O)C(C=Nc2ccccc2C(=O)O)=C(O)C1,-16%,-4%,1,-1.3%
CC(=O)NO,-10%,nt,3,-0.3%
# Further records follow.
SMILES,Rango dissoc inh,miR-21 reporter,GLA inh pH 4.5,Rango complex inh
CCC(=O)c1ccc(N2CCN(C(=O)c3ccccc3Br)CC2)c(F)c1,2%,8%,1,-0.5%
O=C(CNC(=O)c1ccc(OC(F)F)cc1)NC1CCCc2ccccc21 (stereo not given),-1%,1%,nt,1.1%
Cc1cc(C)c(C)c(S(=O)(=O)N2CCN(CC(=O)NC(=O)NCc3ccccc3)CC2)c1C,-1%,-2%,6,3.3%
CCc1ccc(-c2cc(C(F)(F)F)n3nc(C(=O)Nc4c(C)nn(Cc5ccccc5Cl)c4C)cc3n2)s1,?,-1%,-5,?
COc1ccc(C2C(C(=O)NCc3ccco3)c3ccccc3C(=O)N2C)cc1 (stereo not given),-7%,2%,-12,0.5%
CCOC(=O)C1=C(C)Nc2ccccc2N/C1=N\S(=O)(=O)c1ccccc1,-6%,nt,nt,-2.9%
O=C(N/N=C1\CC(c2ccccc2)Oc2ccccc21)c1ccccn1 (stereo not given),4%,-15%,-22,6.2%
C[C@@H](NC(=O)c1nc[nH]c1C(=O)N(C)Cc1ccccc1)c1ccccc1,2%,nt,nt,-4.5%
N#Cc1ccc2c(c1)NC(=O)C1CCCN21 (stereo not given),-18%,26%,8,?
CCCNC(=O)C(Cc1ccccc1)NC(=O)c1ccc(C(F)(F)F)cc1 (stereo not given),5%,nt,nt,0.4%
O=C(C1CCN(S(=O)(=O)c2cccc3cccnc23)CC1)N1CCn2c1nc1ccccc12,13%,-9%,-1,0.0%
Cc1ccc(-c2nc3cnccn3c2Nc2c(C)cccc2C)o1,?,-8%,9,?
CC1CC(C)(C)CC2(C1)NC(=O)N(CC(=O)Nc1cc([N+](=O)[O-])ccc1F)C2=O (stereo not given),28%,nt,nt,7.4%
CN(Cc1cccc(F)c1)C(=O)c1ccc(S(=O)(=O)N2CCOCC2)cc1,8%,nt,nt,0.6%
CN(Cc1nc2c(s1)CCCC2)C(=O)CCc1nnc(-c2ccccc2)o1,-5%,-21%,4,-2.2%
CCc1nc(NC(C)C)c2oc3ccccc3c2n1,-13%,-2%,3,-2.1%
Nc1nonc1-n1nnc(C(=O)N/N=C\c2ccncc2)c1CN1CCCCC1,1%,10%,nt,0.1%
Cc1cc(-c2ccc(Cl)s2)n[nH]1,11%,-46%,0,3.4%
CCCCCCn1c(CN2CCN(C)CC2)nc2c1c(=O)n(C)c(=O)n2C,-4%,0%,2,-0.8%
CCCCn1c(N)c(N(CCOC)C(=O)c2ccc3c(c2)C(=O)N(c2ccccc2C)C3=O)c(=O)[nH]c1=O,3%,nt,nt,-3.1%
CCOc1cc(N2CCOCC2)c(OCC)cc1NC(=O)C(NC(=O)c1c(F)cccc1F)C(C)C (stereo not given),19%,nt,nt,7.6%
COc1cc(C(=O)O/N=C2\CCCc3c2ccc(OC)c3[N+](=O)[O-])cc(OC)c1OC,-26%,-1%,1,-1.0%
Cn1c(=O)c2c(ncn2CC(=O)Nc2cc(Cl)c(Cl)cc2Cl)n(C)c1=O,nt,-2%,2,nt
C=CCN(C)CC/C=C1\c2ccccc2CSc2ccccc21,12%,-2%,-15,3.9%
Cc1cc(C)c(NC(=O)CN(C)C(=O)CCC(=O)c2ccc(C)s2)c(C)c1,1%,nt,nt,0.8%

# An excerpt from above in order of heavy-atom count, rising.
SMILES,Rango dissoc inh,miR-21 reporter,GLA inh pH 4.5,Rango complex inh
Cc1cc(-c2ccc(Cl)s2)n[nH]1,11%,-46%,0,3.4%
N#Cc1ccc2c(c1)NC(=O)C1CCCN21 (stereo not given),-18%,26%,8,?
CCc1nc(NC(C)C)c2oc3ccccc3c2n1,-13%,-2%,3,-2.1%
C=CCN(C)CC/C=C1\c2ccccc2CSc2ccccc21,12%,-2%,-15,3.9%
Cc1ccc(-c2nc3cnccn3c2Nc2c(C)cccc2C)o1,?,-8%,9,?
CCC(=O)c1ccc(N2CCN(C(=O)c3ccccc3Br)CC2)c(F)c1,2%,8%,1,-0.5%
O=C(CNC(=O)c1ccc(OC(F)F)cc1)NC1CCCc2ccccc21 (stereo not given),-1%,1%,nt,1.1%
CC1CC(C)(C)CC2(C1)NC(=O)N(CC(=O)Nc1cc([N+](=O)[O-])ccc1F)C2=O (stereo not given),28%,nt,nt,7.4%
COc1cc(C(=O)O/N=C2\CCCc3c2ccc(OC)c3[N+](=O)[O-])cc(OC)c1OC,-26%,-1%,1,-1.0%
O=C(C1CCN(S(=O)(=O)c2cccc3cccnc23)CC1)N1CCn2c1nc1ccccc12,13%,-9%,-1,0.0%
CCOc1cc(N2CCOCC2)c(OCC)cc1NC(=O)C(NC(=O)c1c(F)cccc1F)C(C)C (stereo not given),19%,nt,nt,7.6%
CCCCn1c(N)c(N(CCOC)C(=O)c2ccc3c(c2)C(=O)N(c2ccccc2C)C3=O)c(=O)[nH]c1=O,3%,nt,nt,-3.1%

# Continuation:
SMILES,Rango dissoc inh,miR-21 reporter,GLA inh pH 4.5,Rango complex inh
Cc1c(Cc2ccccc2)c(=O)oc2cc(OC(C)C(=O)NCC3CCC(C(=O)O)CC3)c(Cl)cc12 (stereo not given),11%,-9%,nt,-0.7%
COc1ccc(-n2c(-c3ccc(Cl)cc3)c[nH]c2=S)cc1,5%,4%,nt,1.8%
CN(CCCNC(=O)CCC(=O)N1CCOc2ccc(Cl)cc21)Cc1ccccc1,10%,2%,nt,-0.9%
O=C(NCc1cccnc1)/C(=C\c1ccc(-c2cccc(Cl)c2)o1)S(=O)(=O)c1ccccc1,11%,?,?,?
COc1ccc(-n2nc([N+](=O)[O-])c(=NCCc3ccc(OC)c(OC)c3)n2O)cc1,2%,2%,-6,0.1%
CCn1cnc2cc(NC(=O)c3cccs3)ccc21,22%,-57%,8,-2.2%
O=C1C(Cc2c[nH]c3ccccc23)NC(=S)N1Cc1ccccc1 (stereo not given),-6%,0%,0,-0.8%
CCOC(=O)CN1C(=O)CSc2ccccc21,2%,-1%,-4,1.6%
COc1ccc(CCNC(=O)COc2cccc(-n3cnnn3)c2)cc1,14%,nt,nt,-2.9%
S=c1[nH]nc(-c2cccc(Br)c2)o1,-27%,-5%,-17,-0.1%
COc1ccc(N2CCN(C(=O)CNC(=O)c3ccc(C(C)(C)C)cc3)CC2)cc1,-10%,3%,13,4.1%
Nc1ncnc2c1ncn2[C@@H]1O[C@H](CNC(=O)[C@@H]2CCCN2S(=O)(=O)c2ccc(F)cc2)[C@@H](O)[C@H]1O,13%,nt,nt,0.0%
Cc1cc(OC(C)C(=O)NC(Cc2c[nH]c3ccc(O)cc23)C(=O)O)c2c(C)cc(=O)oc2c1 (stereo not given),10%,1%,nt,2.1%
COc1ccc(OC)c(/C=C/c2[nH]c(=O)[nH]c(=O)c2[N+](=O)[O-])c1,-5%,-1%,nt,-2.1%
CCOc1c(N2CCCCC2)c(=O)c1=O,0%,-2%,7,0.5%
Cc1ccc(NS(=O)(=O)c2cc(C(=O)N3CCN(C)CC3)ccc2C)cc1,0%,-5%,-12,-2.7%
CCOc1ccc(CN(C)C(C)C(=O)Nc2ccc([N+](=O)[O-])cc2Cl)cc1OC (stereo not given),11%,-2%,-5,-2.5%
CN(C)c1ccc(C(=O)OCC(=O)c2ccc[nH]2)cc1,5%,nt,nt,5.0%
Cc1ccc(NC(=S)NNC(=O)Nc2ccccc2)cc1,0%,-58%,9,-2.3%
Nc1nnc(SCC(=O)N2CCN(Cc3ccccc3)CC2)s1,-2%,0%,-1,4.4%
O=C(c1cccs1)N1CCN(c2ccc([N+](=O)[O-])cc2F)CC1,2%,-10%,nt,-0.7%
CCOC(=O)/C(=N/Nc1ccc(Br)cc1)N1CC(C)OC(C)C1 (stereo not given),4%,nt,nt,5.3%
Cc1ccccc1CSc1nc2ccccc2c(=O)n1C,13%,nt,nt,0.9%
